# Assay outcomes from PubChem.
# nsP2pro primary: inhibitors of chikungunya virus nsP2 protease; Potency, µM (doses to about 24.9 µM), for inactives: top-dose activity change, negative = inhibition, actives largely listed as inhibitors; Q8JUX6; 31,000 tested, 1.1% active; FRET peptide cleavage, nsP2pro, fluorescence 1 h; active means well fitted inhibition curve with a large enough effect; inconclusive means small, poorly fitted or top-dose-only effect; inactive means no such curve, though single readings can be large or run the other way; note: nearly all actives have a fitted effect of over 60% in size; a reference inhibitor and vehicle were the controls
# Target sequence (Q8JUX6 whole entry, looked up): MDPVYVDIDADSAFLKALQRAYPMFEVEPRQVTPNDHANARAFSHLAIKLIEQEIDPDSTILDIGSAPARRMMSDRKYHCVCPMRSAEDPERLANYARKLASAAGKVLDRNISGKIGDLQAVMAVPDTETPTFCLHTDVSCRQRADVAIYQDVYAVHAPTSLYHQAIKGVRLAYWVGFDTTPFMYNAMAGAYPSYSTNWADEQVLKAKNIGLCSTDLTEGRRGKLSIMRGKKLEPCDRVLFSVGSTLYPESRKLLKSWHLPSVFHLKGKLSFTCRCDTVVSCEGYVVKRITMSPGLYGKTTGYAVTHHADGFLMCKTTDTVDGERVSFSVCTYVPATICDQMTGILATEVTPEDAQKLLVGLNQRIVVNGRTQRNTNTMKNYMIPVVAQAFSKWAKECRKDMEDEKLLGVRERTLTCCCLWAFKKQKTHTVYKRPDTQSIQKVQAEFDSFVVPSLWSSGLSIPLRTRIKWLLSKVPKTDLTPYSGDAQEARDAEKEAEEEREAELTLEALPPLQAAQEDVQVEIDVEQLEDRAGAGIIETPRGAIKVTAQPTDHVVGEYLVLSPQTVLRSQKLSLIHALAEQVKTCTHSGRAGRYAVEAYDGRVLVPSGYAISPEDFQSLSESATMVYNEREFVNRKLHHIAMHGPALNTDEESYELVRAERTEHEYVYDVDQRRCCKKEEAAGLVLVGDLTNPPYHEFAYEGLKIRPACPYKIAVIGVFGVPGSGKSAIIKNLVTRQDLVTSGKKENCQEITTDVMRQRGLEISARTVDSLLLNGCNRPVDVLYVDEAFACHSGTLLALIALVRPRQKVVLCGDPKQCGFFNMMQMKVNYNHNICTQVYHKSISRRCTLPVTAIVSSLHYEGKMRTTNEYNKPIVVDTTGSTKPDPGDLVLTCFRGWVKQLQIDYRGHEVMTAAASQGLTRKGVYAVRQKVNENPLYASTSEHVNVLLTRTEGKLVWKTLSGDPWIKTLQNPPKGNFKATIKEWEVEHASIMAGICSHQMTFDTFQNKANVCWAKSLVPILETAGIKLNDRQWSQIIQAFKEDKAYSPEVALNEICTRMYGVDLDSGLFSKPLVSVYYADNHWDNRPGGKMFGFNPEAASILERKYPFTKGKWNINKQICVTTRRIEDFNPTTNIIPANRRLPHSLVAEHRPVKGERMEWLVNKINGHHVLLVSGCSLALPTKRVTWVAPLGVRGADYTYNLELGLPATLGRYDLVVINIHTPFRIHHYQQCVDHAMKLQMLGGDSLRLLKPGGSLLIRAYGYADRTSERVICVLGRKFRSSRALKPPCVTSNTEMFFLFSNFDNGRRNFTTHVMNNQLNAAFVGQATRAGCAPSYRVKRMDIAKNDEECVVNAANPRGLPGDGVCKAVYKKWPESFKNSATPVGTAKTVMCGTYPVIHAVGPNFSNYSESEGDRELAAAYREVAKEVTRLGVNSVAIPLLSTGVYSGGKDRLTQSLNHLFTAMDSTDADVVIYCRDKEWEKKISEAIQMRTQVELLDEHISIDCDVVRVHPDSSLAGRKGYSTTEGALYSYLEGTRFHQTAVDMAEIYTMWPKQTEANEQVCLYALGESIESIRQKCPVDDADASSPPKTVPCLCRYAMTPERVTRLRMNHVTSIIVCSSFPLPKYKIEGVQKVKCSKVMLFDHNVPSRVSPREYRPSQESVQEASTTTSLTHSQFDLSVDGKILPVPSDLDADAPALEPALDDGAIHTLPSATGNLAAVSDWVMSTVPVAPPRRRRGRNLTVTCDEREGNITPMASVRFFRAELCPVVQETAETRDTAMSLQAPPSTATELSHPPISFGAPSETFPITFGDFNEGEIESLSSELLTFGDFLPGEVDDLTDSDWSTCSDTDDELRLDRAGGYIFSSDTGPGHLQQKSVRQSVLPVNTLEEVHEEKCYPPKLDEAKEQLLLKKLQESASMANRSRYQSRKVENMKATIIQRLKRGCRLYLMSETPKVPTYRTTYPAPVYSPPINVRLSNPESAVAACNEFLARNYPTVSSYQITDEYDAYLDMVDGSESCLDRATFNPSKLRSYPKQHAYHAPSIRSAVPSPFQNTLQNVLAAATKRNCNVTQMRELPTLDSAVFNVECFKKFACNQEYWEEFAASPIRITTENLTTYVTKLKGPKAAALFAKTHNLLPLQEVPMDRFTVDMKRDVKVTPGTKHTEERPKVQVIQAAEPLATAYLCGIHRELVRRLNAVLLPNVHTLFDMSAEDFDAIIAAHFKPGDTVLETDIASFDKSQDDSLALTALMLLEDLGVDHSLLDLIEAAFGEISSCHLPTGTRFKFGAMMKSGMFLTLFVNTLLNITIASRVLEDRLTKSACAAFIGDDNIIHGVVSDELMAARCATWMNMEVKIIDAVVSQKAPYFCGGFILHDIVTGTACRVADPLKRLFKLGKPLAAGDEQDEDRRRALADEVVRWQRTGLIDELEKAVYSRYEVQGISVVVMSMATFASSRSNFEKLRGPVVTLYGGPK
# The depositor's hits bear a star; i = inactive; ? = inconclusive; & = joins results of further samples; [ ] = another dose, or the depositor's remark. % is set by controls: 0 for no effect and ±100 for the full control effect; potency is the fitted concentration of half-maximal effect.
molecule	nsP2pro primary
Cc1ccc(CCNC(=O)c2cc3c(=O)[nH]c(C)cn3n2)cc1	1.5%
O=c1oc2ccccc2cc1-c1cn2cc(Cc3cc(Cl)ccc3Cl)sc2n1	-10.4%
C/C=C/CCC1Cc2cc(O)c(CCCC)c(O)c2C(=O)O1 (configuration not stated)	?
O=C(NCCCN1CCCCC1)c1ccc2c(c1)sc1nc(-c3ccc(F)cc3)cn12	139.6%[activator]
C/C=C(\C)C(=O)OC1CC2C(CC=C3CC(OC4CC(OC)C(OC5CC(OC)C(OC6OC(C)C(OC7OC(CO)C(O)C(O)C7O)C(OC)C6O)C(C)O5)C(C)O4)CCC32C)C2(O)CCC(C(C)=O)C12C (configuration not stated)	?
Cc1oc2c(c1C(=O)N1CCOCC1)CN(Cc1cccnc1)CC2	-11.3%
CC(C)(O)[C@H]1O[C@H]2CC[C@@]3(C)[C@@](O)(CC[C@H]4Cc5c([nH]c6ccccc56)[C@@]43C)C2=CC1=O	-13.7%[10 µM]
CC1=C(C(=O)Nc2ccccc2Cl)C(c2ccccc2Br)N=C(Nc2nc3ccccc3o2)N1 (configuration not stated)	1.9%
Cc1ccc(S(=O)(=O)c2nc(S(C)(=O)=O)sc2NCc2ccccc2)cc1	-14.9%
OC[C@H]1NC[C@@H](O)[C@@H](O)[C@@H]1O	-1.9%
FC(F)(F)c1cccc(Nc2nc3nonc3nc2Nc2ccc(Cl)cc2)c1	-13.1%
Cc1ccccc1-n1nc(C)c2c1NC(=O)CSC2c1ccccc1C(F)(F)F (configuration not stated)	-13.4%
CCN(CC)S(=O)(=O)c1ccc2c(c1)N(CC(=O)N1CCN(c3cc(Cl)ccc3C)CC1)C(=O)CO2	-18.9%
CC1=C(C(=O)c2ccccc2)C(c2ccccc2Cl)N=C(Nc2nc3ccccc3o2)N1 (configuration not stated)	i
Fc1ccc(-c2nc(Nc3cccc(C(F)(F)F)c3)nc3c2COc2ccccc2-3)cc1	-4.4%
NC(=O)COc1ccc(C(=O)N[C@@H]2CN(Cc3ccccn3)CCC[C@H]2O)cc1	i
COc1ccccc1N1CCN(C(=O)c2ccc3c(c2)N(Cc2cc(C)ccc2C)C(=O)c2ccccc2S3(=O)=O)CC1	-11.0%
C/C=C/C1=CC2=C(CO1)C(=O)C(C)(OC(=O)c1c(C)cc(O)cc1OC)C(O)C2 (configuration not stated)	-21.7%
CC(C)c1ccccc1NC(=O)N1CCOC(C(F)(F)F)C1 (configuration not stated)	i
CCOC(=O)[C@H](CCc1ccccc1)N[C@@H](C)C(=O)N1CC2(C[C@H]1C(=O)O)SCCS2	?
CN1C[C@H](C(=O)Nc2ccccc2)C[C@H]1c1cccc(C(F)(F)F)c1	-6.0%[39.2 µM]
COc1ccc(CC(=O)Nc2ccc(N3CCC(NCCc4c(C)n[nH]c4C)CC3)cc2)cc1	i
CC(C)c1nc2ccc(C(=O)NC(C)c3ccccc3)cc2o1 (configuration not stated)	-17.7%
C/C(=C\c1ccc(C(=O)O)cc1)c1ccc2c(c1)C(C)(C)CCC2(C)C	-0.9%
CCC(C)C(=O)O[C@H]1[C@@H](O[C@H]2O[C@H](CO)[C@@H](O)[C@H](O)[C@H]2O)O[C@H](CO)[C@@H](O)[C@@H]1O (some centres not stated)	25.2%[10 µM]
COc1ccccc1NC(=O)C1=C(C)Nc2nc(SCc3ccccc3Cl)nn2C1c1ccncc1 (configuration not stated)	-19.0%
COc1ccc(NC(=O)Cc2csc(COc3cccc(C)c3)n2)c(OC)c1	-4.6%
NS(=O)(=O)c1cc2c(cc1Cl)NC(CSCc1ccccc1)=NS2(=O)=O	0.0%
Cc1ccccc1CNC(=O)CCCn1ncn2c(cc3occc32)c1=O	-6.9%
CCOc1ccccc1NC(=O)C1CCN(S(=O)(=O)c2ccc(Br)cc2)CC1	-17.7%
CC(=O)N1CCN(C(=O)c2nc(-c3ccccc3)cs2)CC(O)C1 (configuration not stated)	i
Cc1cccc(NC(=O)c2c(NC(=O)c3ccco3)sc3c2CCC(C)C3)c1 (configuration not stated)	-15.9%
C=C1C(=O)O[C@@H]2/C=C(\C)C(=O)/C=C/[C@](C)(O)C[C@@H](OC(=O)C(C)C)[C@@H]12	-0.8%
CS(=O)(=O)c1ccc(C(=O)OCC(=O)N2CCC(Cc3ccccc3)CC2)cc1[N+](=O)[O-]	-4.0%
Cc1cn2nc(C(=O)NC3CCCC3)cc2c(N2CCSCC2)n1	i
C[C@@H]1CC[C@]2(C(=O)O)CC[C@]3(C)C(=CCC4[C@@]5(C)CC[C@H](O)C(C)(C)C5C(O)C[C@]43C)[C@@H]2[C@]1(C)O (some centres not stated)	90.2%[activator][10 µM]
CN1CC2(CCN(C(=O)CCc3nc(-c4ccco4)no3)C2)OC1=O (configuration not stated)	-16.1%
N#Cc1nc(/C=C/c2ccc(F)cc2)oc1N1CCN(c2ccccc2)CC1	-12.2%
CCOC(=O)C(Cc1cccc(N2CCN(C(=O)OC(C)(C)C)CC2)c1)OC (configuration not stated)	2.8%
CC(=O)N1CCc2nn(CC(=O)N3CCN(c4ccccc4)CC3)c(=O)cc2C1	-7.8%

# (listing goes on)
mol	nsP2pro primary
Cc1ccc(N2CCN(C(=S)Nc3cc(C)ccn3)CC2)cc1	-5.2%
CCCCCCCCCCCCCC#CC(=O)[C@@H]1COC(C)(C)N1C(=O)OC(C)(C)C	4.9%
CSc1cccc(NC(=O)N2CCN(S(=O)(=O)c3ccc4c(ccn4C)c3)CC2)c1	-21.7%
COC(=O)[C@@H](Cc1cccnc1)NC(=O)[C@@H]1CN(C(=O)c2cccc(F)c2)CCN1C(=O)C1CCCCC1	-3.2%
O=C(CSc1nc(=O)[nH]c2c1CCCC2)NCc1ccccc1	-19.0%
CCCn1cc(S(=O)(=O)c2cc(C)ccc2C)c(=O)c2cc(F)c(N3CCCCCC3)cc21	-21.0%
O=C1NC(=NC2CCCCC2)C2(CCN(Cc3ccccc3)C2)N1c1cccnc1 (configuration not stated)	4.8%
CCn1ncc(CN2CCC3(CCC3OC)CC2)c1C (configuration not stated)	i
Cc1cc(NC(=O)c2ccc(-c3ccc(Cl)cc3)o2)cc(-c2nc3ncccc3o2)c1O	-14.0%
CC(=O)O[C@@]1(C)[C@@H]2CC(=C(C)C)C(=O)C[C@@]2(C)CC[C@H]1OC(=O)C1(C)OC1C (some centres not stated)	12.5%
CNc1nc(-c2cccc3ccccc23)ccc1C#N	4.9%
O=C(Cc1cccs1)N1CCN(c2cc(C(F)(F)F)ncn2)CC1	0.4%
O=C(NCc1ccccc1Cl)c1ccc2c(c1)N(Cc1ccccc1)C(=O)c1ccccc1S2	-19.9%
Cc1ccc(/C=C/C(=O)N2CCC(c3nc4ccccc4o3)CC2)cc1	-23.7%
CCCS(=O)(=O)c1nc(S(=O)(=O)c2ccc(C)cc2)c(N(C)Cc2ccccc2)s1	-16.9%
O=C(O)c1ccc2c(c1)C(=O)N([C@H](Cc1ccc([N+](=O)[O-])cc1)C(=O)O)C2=O	-7.0%
Cc1ccc(S(=O)(=O)N(CCc2ccccc2)CC(=O)Nc2ccccc2C)cc1	-11.3%
CC1CCC2C(C)(C)[C@H](O)CC[C@]2(C)C12Cc1c(O)cc3c(c1O2)CN(C(CCC(=O)O)C(=O)O)C3=O (some centres not stated)	-9.5%[10 µM]
COc1ccc(NS(=O)(=O)c2ccc(N)cc2)nn1	-4.1%
CCOc1cccc(CN2CC(C(=O)NCc3ccncc3)C3(CCOCC3)C2)c1 (configuration not stated)	2.1%
Oc1ccc2c3c1O[C@H]1[C@H](N(CCCl)CCCl)CC[C@@]4(O)[C@@H](C2)N(CC2CC2)CC[C@]314	?
OC[C@@H]1O[C@H](CNCc2ccc(F)cc2)[C@H](N2CCCC2)[C@@H]1O	-5.7%[39.2 µM]
N#CC1=C(NC=NCc2ccccc2)Oc2ccc3ccccc3c2C1c1ccccc1 (configuration not stated)	-18.3%
CCOC(=O)c1cnn(-c2ccccc2)c1NC(=O)c1cc2nc(-c3ccco3)cc(C(F)(F)Cl)n2n1	11.1µM*
Cc1cc(C)n2ncc(C(=O)N3CCCC3)c2n1	-4.9%
CCN(Cc1nccn1C)C(=O)c1ccc(N2CCC(COC)C2)nc1 (configuration not stated)	i
CC(C)(C)OC(=O)N1CCC(OCc2nc(-c3ccncc3)no2)CC1	-5.1%
Cc1ccc(OCC(=O)Nc2cccc(C(=O)OCc3cc(=O)n4c(C)csc4n3)c2)cc1	-14.1%
CCCn1cc(-c2ccnc(NC3CCN(Cc4cccnc4)CC3)n2)c(C)n1	i
COCCCNc1nc2cc(OC)c(OC)cc2c2nc(-c3ccccc3)nn12	-19.7%
Cc1ccc(NC(=O)c2ccc(NC(=O)N3CCSc4ncccc43)cc2)c(C)c1	-20.7%
O=C(CSc1ncc(CO)n1Cc1ccccc1)Nc1ccc(C(F)(F)F)cc1	0.6%
O=C(Nc1ccccc1F)C1CN(C2CCCCC2)C(=O)N1 (configuration not stated)	i
CC(C)CCC[C@@H](C)[C@H]1CC[C@H]2[C@@H]3CC=C4C[C@@H](O)CC[C@]4(C)[C@@H]3CC[C@]12C	5.2%[10 µM]
COC(=O)c1c(NC(=O)c2ccc(S(=O)(=O)N3CCCCC3)cc2)sc2c1CCN(C)C2	-11.1%
O=S(=O)(Nc1nc2ccccc2nc1Nc1ccccc1Br)c1ccccc1	-9.4%
Cc1c(C(=O)O)[nH]c2c1C(=O)CCC2	-0.1%
CC(C)c1nnc(N2C(=O)c3oc4ccccc4c(=O)c3C2c2cccc(O)c2)s1 (configuration not stated)	-10.5%
O=C(NC[C@H]1OC[C@@H](NC2CCCCC2)[C@@H]1O)N1CCOCC1	-10.7%[39.2 µM]
CCCCCCCCCCCCCCCC[n+]1ccccc1	321.5%&173.8%[activator]
CCc1c(C)sc(NC(=O)C2c3ccccc3Oc3ccccc32)c1C(=O)OC(C)C	-17.5%
COc1ccc(NC(=O)CCc2c(C)nc3c(c2C)c(=O)n(C)c(=O)n3C)c(OC)c1	-6.0%
Cc1ccccc1C(=O)Nc1cccc(OCc2cc(=O)n3cccc(C)c3n2)c1	-21.5%
COc1ccc(-c2[nH]ncc2C(=O)NCc2ccccc2C)cc1	-15.1%
O=C(c1ccc(Cl)cc1)N1CC(CO)C2(CCNCC2)C1 (configuration not stated)	7.94µM*
COc1ccc(C)c2sc(NC(=O)c3ccc(S(=O)(=O)N4CCOCC4)cc3)nc12	-24.8%
CC(=O)SCC(Cc1ccccc1)C(=O)NCC(=O)OCc1ccccc1 (configuration not stated)	-4.0%
C#CCN(C)[C@H](C)Cc1ccccc1	1.3%
Cc1ccccc1OCCCCn1nnc2sc3c(c2c1=O)CCC(C)C3 (configuration not stated)	?
O=C(CSc1ncnc2sc3c(c12)CCCCC3)NCc1ccco1	?
O=C(NO)c1cnc(NC2(c3ccccc3)CC2)nc1	-6.6%
Cc1ccc(C)c(NS(=O)(=O)c2cc(C(=O)Nc3ccccc3-c3ccccc3)ccc2C)c1	-6.6%
COc1ccccc1NC(=O)N1C[C@@H]2C[C@H](C1)c1c(/C=C/c3ccc(Cl)cc3)ccc(=O)n1C2	-9.6%
CCC1CCCCN1C(=O)Cn1c(=O)n(-c2ccc(Cl)c(Cl)c2)c(=O)c2c(C)c(C(=O)N(C)C)sc21 (configuration not stated)	-16.7%
COc1cc2c(cc1OC)[C@@H](Cc1cc(OC)c(OC)c(OC)c1)[N+](C)(CCCOC(=O)CC/C=C/CCC(=O)OCCC[N+]1(C)CCc3cc(OC)c(OC)cc3[C@H]1Cc1cc(OC)c(OC)c(OC)c1)CC2 (some centres not stated)	-8.7%
Cn1nccc1C(=O)N1CC(c2nc(CCOCC3CCCC3)no2)C1	-5.0%

# A draw from above in order of formula weight, lowest first:
mol	nsP2pro primary
C#CCN(C)[C@H](C)Cc1ccccc1	1.3%
O=C(CSc1ncnc2sc3c(c12)CCCCC3)NCc1ccco1	?
Cc1ccc(C)c(NS(=O)(=O)c2cc(C(=O)Nc3ccccc3-c3ccccc3)ccc2C)c1	-6.6%
COc1ccccc1NC(=O)N1C[C@@H]2C[C@H](C1)c1c(/C=C/c3ccc(Cl)cc3)ccc(=O)n1C2	-9.6%
CCC1CCCCN1C(=O)Cn1c(=O)n(-c2ccc(Cl)c(Cl)c2)c(=O)c2c(C)c(C(=O)N(C)C)sc21 (configuration not stated)	-16.7%
COc1cc2c(cc1OC)[C@@H](Cc1cc(OC)c(OC)c(OC)c1)[N+](C)(CCCOC(=O)CC/C=C/CCC(=O)OCCC[N+]1(C)CCc3cc(OC)c(OC)cc3[C@H]1Cc1cc(OC)c(OC)c(OC)c1)CC2 (some centres not stated)	-8.7%

# Returning to the listing; the 3 compounds before the break are reprinted first.
mol	nsP2pro primary
CCC1CCCCN1C(=O)Cn1c(=O)n(-c2ccc(Cl)c(Cl)c2)c(=O)c2c(C)c(C(=O)N(C)C)sc21 (configuration not stated)	-16.7%
COc1cc2c(cc1OC)[C@@H](Cc1cc(OC)c(OC)c(OC)c1)[N+](C)(CCCOC(=O)CC/C=C/CCC(=O)OCCC[N+]1(C)CCc3cc(OC)c(OC)cc3[C@H]1Cc1cc(OC)c(OC)c(OC)c1)CC2 (some centres not stated)	-8.7%
Cn1nccc1C(=O)N1CC(c2nc(CCOCC3CCCC3)no2)C1	-5.0%
Cc1cc(C)c2c(NC(=O)c3ccccc3Cl)c(C(=O)NCc3ccc(Cl)cc3)sc2n1	?
c1csc(CNc2ncnc3ccc(-c4ccoc4)cc23)c1	?
Cc1ccccc1Cn1cc(CCC(=O)NC(C)c2ccccc2)c2ccccc21 (configuration not stated)	-19.2%
CC[C@H]1OC(=O)C[C@@H](OC(C)=O)[C@H](C)[C@@H](O[C@@H]2O[C@H](C)[C@@H](O[C@H]3C[C@@](C)(O)[C@@H](OC(=O)CC(C)C)[C@H](C)O3)[C@H](N(C)C)[C@H]2O)[C@@H](CC=O)C[C@@H](C)C(=O)/C=C/C(C)=C/[C@@H]1CO[C@@H]1O[C@H](C)[C@@H](O)[C@@H](OC)[C@H]1OC	14.4%
CN1CCN(C2=Nc3ccccc3Oc3ccc(Cl)cc32)CC1	-1.0%
Cc1ccc(N2CCC(CNc3nc(-c4ccccc4C(C)C)ncc3F)CC2)cn1	-4.4%

# An excerpt. The share of hits here may be higher or lower than overall.
